StopGo RLuc = FMDV 2A StopGo reporter, Renilla signal; 0.32% of 120,000 active; HEK cells with a luciferase reporter of 2A StopGo recoding; AID 1745857; Potency, µM (titrated, usually from 57.5 µM), for inactives: at the highest dose signal change, negative = less light; active means well fitted falling curve with a large enough effect; inconclusive means small, poorly fitted or top-dose-only effect; inactive means no such curve, though single readings can be large or run the other way; further: nearly all actives have a fitted effect of over 55% in size; overnight with compound
StopGo FLuc = FMDV 2A StopGo reporter, firefly signal. 0.23% of 120,000 active. HEK cells with a luciferase reporter of 2A StopGo recoding. AID 1745856. Potency, µM (top dose mostly 57.5 µM), for inactives: top-dose signal change, negative = less light; active = well fitted falling curve with a large enough effect; inconclusive = small, poorly fitted or top-dose-only effect; inactive = no such curve, though single readings can be large or run the other way; further: nearly all actives have a fitted effect of over 60% in size; overnight with compound
The depositor's hits bear a star; ? = inconclusive; [ ] = another dose, or the depositor's remark. On the % scale 0 is the no-effect control and ±100 the full control effect; potency means the concentration at half of the fitted maximal effect.

Preview:
(1) O=C(COc1ccccc1)NCC(O)c1ccccc1C(F)(F)F (stereo not given)
(2) Cc1cccc(Nc2sc(C(=O)c3ccc(Cl)cc3)c(N)c2C(N)=O)c1
(3) COc1ccc(-c2noc(CN3CCN(c4cccc(Cl)c4)CC3)n2)cc1
(4) COc1ccc(-c2csc(NC(=O)Cn3cnc4c3c(=O)n(C)c(=O)n4C)n2)cc1F
(5) COc1cccc(/C=C(/C#N)C(=O)Nc2ccccc2C(=O)O)c1
(6) CCCS(=O)(=O)N1CCN(c2ccc(N3CCCCCC3)nn2)CC1
(7) Cc1noc(/C=C/c2cccs2)c1S(=O)(=O)N1CCC(C(=O)Nc2ccc(F)c(Cl)c2)CC1
(8) COc1ccc(-c2[nH]c3c(c2-c2c(-n4cccc4)n(C)c(=O)[nH]c2=O)c(=O)[nH]c(=O)n3C)cc1F
assay / entry,1,2,3,4,5,6,7,8
StopGo RLuc,19%,-16%,-18%,-4%,79%[activator],-5%,?,-9%
StopGo FLuc,3%,-10%,24%,26%,328%[activator],3%,?,-14%

(9) COc1ccc(NC(=O)c2ccc3nc(CCc4ccccc4)oc3c2)cc1
(10) CN(C(=O)CSc1nc2ccccc2c(=O)n1CCc1cccs1)c1ccccc1
(11) CCOc1ccc(NC(=O)CN(c2ccc(CC)cc2)S(=O)(=O)c2ccccc2)cc1
(12) O=C(Cn1c(=O)n(Cc2cccs2)c(=O)c2cccnc21)Nc1ccc(F)cc1
(13) Cc1cc(C)c2c(=O)cc(C(=O)N(Cc3ccc(C(C)C)cc3)C3CCS(=O)(=O)C3)oc2c1 (stereo not given)
assay / entry,9,10,11,12,13
StopGo RLuc,-7%,-29%,32%[activator],27%,10%
StopGo FLuc,48%[activator],?,5%,11%,-2%

Main list (from the top)
(1) O=C(COc1ccccc1)NCC(O)c1ccccc1C(F)(F)F (stereo not given)
(2) Cc1cccc(Nc2sc(C(=O)c3ccc(Cl)cc3)c(N)c2C(N)=O)c1
(3) COc1ccc(-c2noc(CN3CCN(c4cccc(Cl)c4)CC3)n2)cc1
(4) COc1ccc(-c2csc(NC(=O)Cn3cnc4c3c(=O)n(C)c(=O)n4C)n2)cc1F
(5) COc1cccc(/C=C(/C#N)C(=O)Nc2ccccc2C(=O)O)c1
(6) CCCS(=O)(=O)N1CCN(c2ccc(N3CCCCCC3)nn2)CC1
assay / entry,1,2,3,4,5,6
StopGo RLuc,19%,-16%,-18%,-4%,79%[activator],-5%
StopGo FLuc,3%,-10%,24%,26%,328%[activator],3%

(7) Cc1noc(/C=C/c2cccs2)c1S(=O)(=O)N1CCC(C(=O)Nc2ccc(F)c(Cl)c2)CC1
(8) COc1ccc(-c2[nH]c3c(c2-c2c(-n4cccc4)n(C)c(=O)[nH]c2=O)c(=O)[nH]c(=O)n3C)cc1F
(9) COc1ccc(NC(=O)c2ccc3nc(CCc4ccccc4)oc3c2)cc1
(10) CN(C(=O)CSc1nc2ccccc2c(=O)n1CCc1cccs1)c1ccccc1
(11) CCOc1ccc(NC(=O)CN(c2ccc(CC)cc2)S(=O)(=O)c2ccccc2)cc1
(12) O=C(Cn1c(=O)n(Cc2cccs2)c(=O)c2cccnc21)Nc1ccc(F)cc1
assay / entry,7,8,9,10,11,12
StopGo RLuc,?,-9%,-7%,-29%,32%[activator],27%
StopGo FLuc,?,-14%,48%[activator],?,5%,11%

(13) Cc1cc(C)c2c(=O)cc(C(=O)N(Cc3ccc(C(C)C)cc3)C3CCS(=O)(=O)C3)oc2c1 (stereo not given)
(14) O=C1CC2(C(=O)Nc3ccccc32)c2sc(C(=O)O)c(-c3ccccc3)c2N1 (stereo not given)
(15) CC(C)(C)c1ccc(C(=O)Nc2c(C(=O)c3ccc(F)cc3)oc3ccccc23)cc1
(16) COc1ccc(N2CCN(c3ncnc4onc(C)c34)CC2)cc1
(17) CC(=O)c1cccc(NS(=O)(=O)c2c(C)nc3sc(C)cn3c2=O)c1
(18) CCCNC(=O)CS(=O)Cc1cccc2ccccc12 (stereo not given)
assay / entry,13,14,15,16,17,18
StopGo RLuc,10%,-20%,-3%,-6%,45%[activator],12%
StopGo FLuc,-2%,-12%,-4%,?,?,-1%

(19) Cc1ccc2c(c1)N(C(=O)N1CCC(C(=O)NCCc3ccccc3)CC1)CC(C)O2 (stereo not given)
(20) CC(=O)c1ccc(N2CCN(CC(=O)Nc3nc(-c4ccc(F)c(F)c4)cs3)CC2)cc1
(21) CCOC(=O)Cn1cc(CN2C(C(=O)OC)CN(Cc3ccccc3)CCS2(=O)=O)nn1 (stereo not given)
(22) O=C(O)c1cc(F)ccc1-c1ccccc1
(23) CC(C)CNc1nc2c(c(=O)n(C)c(=O)n2C)n1Cc1ccc(F)cc1
(24) COc1ccc(NS(=O)(=O)c2ccc3[nH]c4c(c3c2)CCCC4)cc1Cl
assay / entry,19,20,21,22,23,24
StopGo RLuc,4%,-10%,-2%,5%,-2%,407%[activator]
StopGo FLuc,-7%,-3%,2%,-4%,-7%,-2%

(25) Cc1ccc(C(=O)NC23CC4CC(CC(C4)C2)C3)cc1C
(26) Cc1ccc(-c2cc(C(=O)N3CCOCC3)on2)cc1
(27) Cc1noc(C)c1S(=O)(=O)Nc1c(NCc2ccccc2)c2ccccc2oc1=O
(28) Cc1ccc(C(=O)Nc2ccc3nc(N4CCCCC4)cc(C)c3c2)cc1F
(29) Cc1ccc(-c2cn3c(n2)sc2cc(C(=O)NCCCc4ccccc4)ccc23)cc1
(30) COc1cccc(C(=O)Nc2ccc(-n3nncc3-c3ccccc3)cc2)c1
assay / entry,25,26,27,28,29,30
StopGo RLuc,-3%,-1%,49%[activator],-1%,22%,-1%
StopGo FLuc,5%,-21%,-4%,19%,71%[activator],-2%

(31) COC(=O)CN1CCCC1c1ccsc1 (stereo not given)
(32) Cc1ccccc1OCc1ccc(-c2nc(C#N)c(N3CCN(c4cccc(Cl)c4)CC3)o2)o1
(33) Cc1ccc(CN(Cc2ccco2)C(=O)c2cccc(C)c2)cc1
(34) COC(=O)c1ccc(/C=C2\CCc3cc(OC)ccc3C2=O)cc1
(35) CC(Sc1nnc2c(Cl)cc(C(F)(F)F)cn12)C(=O)c1cccc(Cl)c1 (stereo not given)
(36) CCOC(=O)c1cc2n(n1)CC(C)(C(=O)NCCC(C)C)N(c1ccc(OC)cc1)C2=O (stereo not given)
assay / entry,31,32,33,34,35,36
StopGo RLuc,1%,-8%,10%,7%,-3%,6%
StopGo FLuc,1%,-15%,-16%,99%[activator],-11%,9%

(37) Cc1ccc(NC(=O)CC(C)(C(=O)O)c2ccccc2)c(F)c1 (stereo not given)
(38) Cc1cc(C(=O)NC2CCCCC2)c2ccccc2n1
(39) COc1ccc(Cl)cc1NC(=O)Cn1cc2c(n1)CCC(C)C2 (stereo not given)
(40) COc1ccc(-c2nc3nc(C)cc(C)n3c2Nc2c(C)cccc2C)cc1
(41) CCCCNC(=S)NCCc1c(C)[nH]c2ccc(C)cc12
(42) COC(=O)c1c(NC(=O)c2ccc(S(=O)(=O)N3CCCC(C)C3)cc2)sc2c1CCN(C(C)C)C2 (stereo not given)
assay / entry,37,38,39,40,41,42
StopGo RLuc,5%,0%,-11%,-9%,262%[activator],6%
StopGo FLuc,4%,1%,-13%,-1%,-8%,-4%

(43) Cn1nc(C(=O)NCc2ccc(CN3CCCC3)cc2)c2ccccc2c1=O
(44) CC(C)(C(=O)NCCc1cccs1)c1ccccc1
(45) Cc1ccc(CN2CCc3nc(N4CCN(c5ncccn5)CC4)ncc3C2)cc1
(46) Cc1cc(O)c(C(c2ccccc2)N2CCN(c3ccc(F)cc3)CC2)c(=O)n1Cc1ccco1 (stereo not given)
(47) Cc1cccc(-c2nc(SCC(=O)N(C)c3ccccc3)c3c(=O)n(C)c(=O)n(C)c3n2)c1
(48) COc1ccc(C(=O)Nc2oc3ccccc3c(=O)c2-c2cccc(OC)c2)cc1
assay / entry,43,44,45,46,47,48
StopGo RLuc,6%,-6%,?,-11%,-6%,48%[activator]
StopGo FLuc,14%,-4%,?,-25%,-9%,39%[activator]

(49) O=C(Cc1ccccc1F)N1CCC(c2nc3c(nnn3Cc3ccc(F)cc3)c(=O)[nH]2)CC1
(50) O=C(CCNC(=O)c1ccsc1)Nc1cccnc1N1CCCC1
(51) Oc1ccc(NCc2ccccc2OCc2ccccc2)cc1
(52) O=C(Nc1nc(-c2cc3ccccc3oc2=O)cs1)c1ccccc1Cl
(53) COc1ccc(OC)c(CCNC(=O)c2ccc(Cl)c(N3C(=O)CCS3(=O)=O)c2)c1
(54) Cc1ccc(NC(=O)CC(C)S(=O)(=O)c2ccc3c(c2)NC(=O)CO3)c(Cl)c1 (stereo not given)
assay / entry,49,50,51,52,53,54
StopGo RLuc,-8%,-9%,?,-8%,14%,1%
StopGo FLuc,-14%,-10%,?,2%,11%,7%

(55) CC(C)(C)c1cc(N)n[nH]1
(56) COc1cccc(NC(=O)CSc2nnc(NC(=O)NC3CCCCC3)s2)c1
(57) O=C(CCC1CCCC1)N1CCN(C(=O)c2cc3ccccc3oc2=O)CC1
(58) CCOc1ccc2c(c1)c(=O)c(C(=O)c1ccc(CC)cc1)cn2CC(=O)Nc1ccccc1OC
(59) COc1ccc(C(=O)/C=C/c2ccc(-c3ccc(OC)cc3)o2)cc1
(60) C[C@@H](C(=O)N1CCN(c2cccc(Cl)c2)CC1)n1cnc2ccccc2c1=O
assay / entry,55,56,57,58,59,60
StopGo RLuc,-9%,1%,8%,-11%,?,-3%
StopGo FLuc,-8%,90%[activator],22%,-17%,-27%,2%

(61) Cc1ccc(NC(=O)C(Cc2ccccc2)n2cccc2)c(C)c1 (stereo not given)
(62) CCN(CC(=O)N1c2ccccc2OCC1c1ccccc1)Cc1nc2ccccc2c(=O)[nH]1 (stereo not given)
(63) COc1ccc(-c2nn3c(-c4ccccc4C)nnc3c3ccccc23)cc1
(64) Cc1cccc(S(=O)(=O)Nc2nc3ccccc3nc2Nc2ccccc2F)c1
(65) COC(=O)c1c(-c2ccc(C)cc2)csc1NC(=O)c1ccoc1C
(66) CCCNC(=O)Cc1ccc2c(c1)CCCC2
assay / entry,61,62,63,64,65,66
StopGo RLuc,5%,22%,0%,-1%,-10%,16%
StopGo FLuc,30%,-16%,0%,-7%,158%[activator],0%

(67) CN=Cc1cc(C(C)(C)C)cc(C(C)(C)C)c1O
(68) Cc1cc(S(=O)(=O)NCCO)ccc1Cl
(69) Cc1cc(C)c2c(C)c(C(=O)N3CCC(c4nc5ccccc5s4)CC3)oc2c1
(70) Cc1ccnc(NS(=O)(=O)c2ccc(NC(=O)c3ccc(C)c(C)c3)cc2)n1
(71) Cc1cnc(NC(=O)c2csc(NCC(C)C)n2)s1
(72) CCOC(=O)c1ccccc1NC(=O)c1ccc2c(Cl)c3c(nc2c1)CCC3
assay / entry,67,68,69,70,71,72
StopGo RLuc,-6%,38%[activator],10%,2%,6%,-20%
StopGo FLuc,-10%,0%,-16%,-12%,131%[activator],67%[activator]

(73) NC(=O)c1cccc(NC(=O)c2ccccc2CSc2nc3ccccc3o2)c1
(74) CC(C)(C)c1nnc2sc(-c3c[nH]c4ccccc34)nn12
(75) CC(Sc1nc(N)cc(N)n1)C(=O)c1ccc(Br)cc1 (stereo not given)
(76) COc1ccc(C)cc1CN(C)C(=O)c1n[nH]c(=O)c2ccccc12
(77) Cc1ccc(Nc2nc(C(=O)OCC(=O)c3ccc(Cl)cc3)cs2)cc1C
(78) CSC(C)C(=O)Nc1ccc(C)c(I)c1 (stereo not given)
assay / entry,73,74,75,76,77,78
StopGo RLuc,23%,-5%,-1%,22%,-10%,-3%
StopGo FLuc,139%[activator],17%,6%,8%,0%,0%

(79) CCCCCOc1ccc(OC(=O)c2ccc(-c3ccc(CCC)cn3)cc2)cc1
(80) COc1ccc(C(=O)NCc2ccccc2)cc1
(81) Cc1ccc(CSC2=NS(=O)(=O)c3ccccc3N2Cc2ccccc2)cc1
(82) Cn1c(-n2cccc2)c(-c2c(-c3ccccc3)[nH]c3c2c(=O)[nH]c(=O)n3C)c(=O)[nH]c1=O
(83) C=CCN(CC#CC1=CCCCC1)CC1CC1
(84) O=C(Nc1ccc(Br)cc1)N1CCSc2ccccc21
assay / entry,79,80,81,82,83,84
StopGo RLuc,16%,19%,19%,3%,0%,0%
StopGo FLuc,127%[activator],94%[activator],0%,6%,-5%,74%[activator]

(85) COc1ccccc1N1CCN(C(=O)c2oc3ccccc3c2NC(=O)C(C)Oc2ccccc2)CC1 (stereo not given)
(86) Cn1c(=O)c2c(nc(NC3CCCCC3)n2CC(O)CO)n(C)c1=O (stereo not given)
(87) CC1CCc2noc(NC(=O)COc3ccccc3)c2C1 (stereo not given)
(88) COc1nc(N)nc2c1ncn2[C@@H]1O[C@H](CO)[C@@H](O)[C@@H]1O
(89) CCOc1cc(/C=C2/NC(=O)NC2=O)cc(Br)c1OCc1ccccc1
assay / entry,85,86,87,88,89
StopGo RLuc,11%,-12%,10%,16%,6%
StopGo FLuc,-11%,-13%,137%[activator],-5%[11.5 µM],11%

Assay outcomes: PubChem, National Center for Advancing Translational Sciences (NCATS)
